Sa RN4220 lethal: S. aureus RN4220 growth inhibition | inhibition, % (no concentration beside the values) | 0.33% of 330,000 active | OD600, 16 h;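 active means z-score of -3 or lower and OD600 up to 0.18 on both plates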;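 further: plate controls were untreated cells for no effect and reference antibiotic for full effect; stock transfer was 100 nL into about 80 µL; one replicate is shown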
PrP UTR inh: suppresses PrP 5' UTR mRNA reporter expression | cell-based PrP 5' UTR mRNA reporter, plate reader | inhibition, % (no concentration beside the values) | 0.35% of 340,000 active;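 active means every replicate at 50% or more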;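 further: 0 = median of the neutral control wells; tested in H4 reporter cells; numbers are from one replicate; inactives centre near -14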
Autofluor counter: flagged as autofluorescent in microsphere protease counterscreen; compound autofluorescence counterscreen, microsphere flow cytometry; active compounds read high; fluorescence intensity (no concentration beside the values); 3.1% of 360,000 active; AID 624483;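 active means at least 3 SD above the mean of all compounds, about 16000 in these data; inconclusive means too few beads counted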;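 further: 100 nL of 1 mM stock went into each well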
BJeLR viability: BJeLR cell viability loss. BJeLR (HRASV12) viability, CellTiter-Glo ATP luminescence, 48 h; reference of the scale not given here. inhibition, % (concentration not given with the values). 0.17% of 300,000 active. AID 1554;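 active means replicate mean above 50%; inconclusive means above 50% but judged a plate artefact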;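 further: 50 nL library stock added to about 25 µL; numbers are from one replicate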
Sa ugtP lethal: growth inhibition of S. aureus ugtP deletion strain. growth inhibition, % (test concentration not listed). 0.54% of 330,000 active. S. aureus RN4220 ugtP deletion, OD600 growth, 16 h; some inactives read as strong as hits;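 active means z-score under -3 and OD600 up to 0.15 on both plates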;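 further: plate controls were untreated wells for no effect and antibiotic for full effect; wells of about 80 µL received 100 nL stock; the first replicate is given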
Mtb hypoxia inh: inhibitors of hypoxia-regulated fluorescent reporter in Mycobacterium tuberculosis; fluorescence inhibition, % (concentration not given with the values); AID 1159583; M. tuberculosis hypoxia-regulated fluorescent reporter, fluorescence; 0.1% of 300,000 active;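 active means 35 to 45% if threefold the growth effect, above 45% if 1.5-fold the growth effect; inactive means the rest, general growth blockers included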;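 further: wells of about 50 µL received 100 nL stock; 0% = vehicle wells and 100% = reference inhibitor wells; whole bacteria with a GFP reporter of the hypoxia response; strong numbers were not always called active; many hits fall short of the cut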
Mtb hypoxia inh growth: recorded beside Mtb hypoxia inh, whose call it bears; growth inhibition, %; measured here: M. tuberculosis growth (absorbance);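 0% = vehicle and 100% = reference antibiotic; read after six days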
The depositor's hits bear a star; ? = inconclusive; . = no result given.

SMILES | Sa RN4220 lethal | PrP UTR inh | Autofluor counter | BJeLR viability | Sa ugtP lethal | Mtb hypoxia inh | Mtb hypoxia inh growth
CC(=O)c1ccc(NC(=S)NCC(c2ccco2)N2CCCC2)cc1 (stereo not given) | 1.4 | -9 | 7837 | 10 | 8 | 12 | 1
Cc1ccc(NC(=O)c2sc(C)nc2C)c(C)c1 | -0.8 | -22 | 3558 | 1 | -3 | 11 | -2
Cc1c(O)nc(SC2CC(=O)N(c3ccccc3)C2=O)[nH]c1=O (stereo not given) | 3.3 | -14 | 3857 | 3 | -3 | -3 | 0
CCOC(=O)CN1CC23C=CC(O2)C(C(=O)O)C3C1=O (stereo not given) | 4.9 | -2 | 5340 | -2 | 5 | . | .
CC(C)(C)c1ccc(OCCC(=O)OCC(=O)NC2CCS(=O)(=O)C2)cc1 (stereo not given) | 2.9 | -23 | . | 8 | 3 | 6 | 6
CCOC(=O)C1=C(c2ccccc2)O/C(=C(\C(=O)OC)C(F)(F)F)S1 | -2.5 | -20 | 5102 | 4 | 18 | 18 | 3
CCCN1CCc2c(sc3nc(SCC)n(-c4ccc(OC)cc4)c(=O)c23)C1 | 1.4 | -22 | 4205 | 18 | 11 | -4 | 8
Cc1ccccc1S(=O)(=O)N1CC(C(=O)O)=CCC1c1ccc(Cl)cc1 (stereo not given) | 16 | . | . | . | 8 | 18 | 6
Cc1cc(C)n2c(SCC(C)C)nnc2n1 | 10 | -16 | 2294 | -4 | -2 | 2 | 5
Cc1ccc(NC(=O)c2ccccc2OCC(=O)Nc2ccccc2F)cc1S(=O)(=O)N(C)C | 0.6 | -7 | 4964 | . | -17 | -7 | -2
CC(=NNC(=O)c1cc(C)nc2ccccc12)c1ccccn1 | 1.9 | . | . | . | -8 | 2 | 8
Cc1ccc(CNC(=O)CCCn2c(=O)[nH]c3ccccc3c2=O)cc1 | 1.0 | -16 | 6513 | -2 | 1 | 5 | -1
CCc1ccc(N(CC(=O)Nc2ccccc2C(=O)N2CCCC2)S(C)(=O)=O)cc1 | -2.0 | -10 | . | -1 | -8 | 2 | -17
O=C(Nc1ncc(Cc2cccc(Cl)c2Cl)s1)C1CCCO1 (stereo not given) | -2.1 | -38 | 4575 | 7 | -6 | -8 | 2
CCN(CC)S(=O)(=O)c1cc(C(=O)OC(C)C(=O)NCc2ccco2)ccc1C (stereo not given) | 3.7 | -23 | 3578 | . | 11 | 6 | 3
O=C(COC(=O)c1ccc(F)cc1F)NCCNC(=O)COC(=O)c1ccc(F)cc1F | 2.0 | -4 | 6453 | -7 | 2 | 4 | -12
Cc1cc(C(=O)Nc2ccon2)cs1 | 1.1 | -39 | 10775 | 3 | -3 | -14 | 1
O=C(OCC(=O)N1CCN(C(=O)c2ccco2)CC1)c1cc(-c2cccc(Br)c2)nc2ccccc12 | 2.1 | -37 | 24517* | -1 | 16 | 6 | 29
O=C(OCC(=O)c1c[nH]c2ccccc12)c1cc(S(=O)(=O)N2CCOCC2)ccc1F | 3.9 | -13 | 7923 | . | -1 | 4 | 1
COC(=O)CC1=NC(=O)CS1 | -2.8 | 1 | 2272 | -14 | 4 | . | .
N/C(=N\OC(=O)c1cccc([N+](=O)[O-])c1)c1cccnc1 | . | -27 | 2173 | 10 | . | . | .
Cc1ccc(C)c(NC(=O)CN(C)C(=O)Cc2ccc(Cl)cc2Cl)c1 | -0.9 | -25 | 3219 | 4 | 1 | 1 | -6
CCOC(=O)C1=C(COC(=O)c2cccs2)NC(=O)NC1C (stereo not given) | 5.3 | -22 | 10110 | 5 | 5 | 14 | 3
CCOc1cc(OCC)cc(C(=O)Nc2cccnc2)c1 | 5.7 | -23 | 10547 | 5 | 4 | 3 | 5
Cc1cc([N+](=O)[O-])ccc1N1C(=O)c2ccc(C(=O)Nc3ccccc3C(=O)O)cc2C1=O | 1.0 | -30 | 3407 | 10 | -3 | -9 | 7
O=C(CSc1nc2ccc(NC(=O)CSc3nnnn3Cc3ccccc3)cc2s1)Nc1ccccc1 | 2.2 | -11 | 8061 | -9 | -12 | 3 | -4
N[C@@H](Cc1c[nH]c2ccccc12)c1nnc(SCc2ccc(Cl)cc2)o1 | 6.2 | -12 | 6626 | 1 | -13 | 5 | 10
CCCCNC(=O)CSc1nc(CCC)nc2ccccc12 | 0.9 | -14 | 4624 | 8 | -6 | 3 | -7
CCC(C)[C@H](NC(=O)C1CCC(CNC(=O)[C@@H]2CCCN2C(=O)OC(C)(C)C)CC1)C(=O)O (stereo not given in full) | 5.6 | -8 | 3241 | 0 | 15 | -2 | 2
Cn1c(=O)[nH]c(=O)c2c1nc(N1CCCCCC1)n2CCCSc1nc2ccccc2o1 | 10 | -7 | 9104 | 1 | -15 | 3 | 6

An excerpt from above in order of formula weight, lowest first.
SMILES | Sa RN4220 lethal | PrP UTR inh | Autofluor counter | BJeLR viability | Sa ugtP lethal | Mtb hypoxia inh | Mtb hypoxia inh growth
COC(=O)CC1=NC(=O)CS1 | -2.8 | 1 | 2272 | -14 | 4 | . | .
N/C(=N\OC(=O)c1cccc([N+](=O)[O-])c1)c1cccnc1 | . | -27 | 2173 | 10 | . | . | .
CCCCNC(=O)CSc1nc(CCC)nc2ccccc12 | 0.9 | -14 | 4624 | 8 | -6 | 3 | -7
CCOC(=O)C1=C(COC(=O)c2cccs2)NC(=O)NC1C (stereo not given) | 5.3 | -22 | 10110 | 5 | 5 | 14 | 3
N[C@@H](Cc1c[nH]c2ccccc12)c1nnc(SCc2ccc(Cl)cc2)o1 | 6.2 | -12 | 6626 | 1 | -13 | 5 | 10
Cc1cc([N+](=O)[O-])ccc1N1C(=O)c2ccc(C(=O)Nc3ccccc3C(=O)O)cc2C1=O | 1.0 | -30 | 3407 | 10 | -3 | -9 | 7
O=C(OCC(=O)c1c[nH]c2ccccc12)c1cc(S(=O)(=O)N2CCOCC2)ccc1F | 3.9 | -13 | 7923 | . | -1 | 4 | 1
CCC(C)[C@H](NC(=O)C1CCC(CNC(=O)[C@@H]2CCCN2C(=O)OC(C)(C)C)CC1)C(=O)O (stereo not given in full) | 5.6 | -8 | 3241 | 0 | 15 | -2 | 2
O=C(CSc1nc2ccc(NC(=O)CSc3nnnn3Cc3ccccc3)cc2s1)Nc1ccccc1 | 2.2 | -11 | 8061 | -9 | -12 | 3 | -4

(list continues)
SMILES | Sa RN4220 lethal | PrP UTR inh | Autofluor counter | BJeLR viability | Sa ugtP lethal | Mtb hypoxia inh | Mtb hypoxia inh growth
CC(=O)N1CCN(S(=O)(=O)c2ccc(S(=O)(=O)N3CCCC(C)C3)cc2)CC1 (stereo not given) | 3.2 | -22 | 3714 | -1 | 15 | 2 | 3
Cc1cc(Br)ccc1-n1[nH]c(C)c(C=Nc2cccc3nsnc23)c1=O | 1.7 | -23 | 5167 | -17 | -4 | 6 | 0
COC(=O)c1cc2ccccc2c([N+](=O)[O-])c1O | 5.9 | -28 | 4661 | . | 2 | 14 | 6
COCc1c(C(=O)Nc2cccc(S(=O)(=O)N3CCCCC3)c2)oc2ccccc12 | 0.6 | 11 | 2973 | . | 19 | 8 | 10
CCC1(CC)C(=O)N(C)C(=O)NC1=Nc1ccccc1 | 0.6 | -3 | 9022 | 4 | 0 | -13 | -4
COc1ccc(CNC(=O)c2cnn3c(C(F)F)cc(C)nc23)cc1 | 4.2 | -22 | 4743 | -5 | 6 | 4 | 7
NS(=O)(=O)c1ccc(CNC(=O)c2cc(=O)c3cc(Cl)ccc3o2)cc1 | 1.2 | -14 | 3800 | 2 | -5 | -18 | 1
O=C(CCCO)N/N=C/c1ccccc1[N+](=O)[O-] | . | -8 | 2488 | 0 | . | . | .
CCN1C(=O)C2C(c3ccc(-c4ccc(OC)cc4)cc3)N[C@@](CC(C)C)(C(=O)OC)C2C1=O (stereo not given in full) | 0.3 | . | . | . | 7 | 14 | 5
Cc1ccc(-c2ccc(CCC(=O)O)n2-c2ccc(O)cc2)cc1 | -1.4 | . | 10421 | -2 | 18 | -1 | 0
O=C(O)C(F)=C(c1ccccc1)c1ccccc1 | -6.0 | 1 | 4363 | 2 | -2 | 4 | 1
CC(C)Cc1nc2n[nH]c(N)c2c2c1CCCC2 | 6.1 | 0 | ? | -7 | -2 | . | .
CC(C)C[C@H](NC(=O)c1[nH]cnc1C(=O)Nc1ccc(CNC(=O)OC(C)(C)C)cc1)C(=O)OCc1ccccc1 | . | -11 | 4254 | 2 | . | . | .
CC/C(=N\NC(=O)c1csc(C)c1C)c1cccs1 | . | -139 | 4582 | 7 | . | . | .
Cc1nnc(SCC(=O)Nc2nc(C(C)(C)C)cs2)s1 | 8.9 | 2 | 21050* | -14 | -2 | 6 | 12
COCCCN=C(c1ccco1)n1c(=S)nc(-c2ccco2)n(CCCOC)c1=S | -1.1 | -1 | 4506 | 4 | 2 | 1 | -4
Cc1ccc(/C(N)=N/OC(=O)c2ccc3c(c2)OCO3)cc1 | 2.9 | -156 | 2585 | 1 | 12 | 16 | 7
COCCn1c(Cc2ccccc2)nnc1SCC(=O)NC1CCCCC1 | -0.2 | 1 | 3084 | -4 | -2 | -1 | -2
CCCCn1c(CCC(=O)O)nc2cc(S(=O)(=O)N(C)C)ccc21 | 7.5 | 11 | 4612 | -4 | 3 | 12 | 0
COc1ccc(N2CCN(C(c3cc(OC)ccc3OC)c3nnnn3Cc3ccco3)CC2)cc1 (stereo not given) | 5.8 | -8 | 4685 | 2 | 4 | . | .
CCOc1ccccc1NC(=O)CN1C(=O)CSC(C)C1=O (stereo not given) | 11 | -67 | 3849 | 9 | 6 | 11 | 8
Cc1ccc(C(=O)N2CCSCC2)cc1 | 4.0 | -46 | 20353* | -4 | 2 | 3 | 10
CCOC(=O)C1=C(C)NC(=O)NC1 | -1.2 | -14 | 2716 | 12 | 0 | . | .
Cc1ccc(C2OCC(C)([N+](=O)[O-])CO2)cc1 (stereo not given) | 0.4 | -14 | 3136 | . | -1 | 22 | 10
O=C(CC(C(=O)O)c1ccc(F)cc1)c1ccc(Cl)cc1 (stereo not given) | 11 | -9 | 3752 | -4 | 0 | -1 | -4
O=C(NCC1CCCCC1)c1cc(S(=O)(=O)N2CCOCC2)ccc1F | 1.2 | 6 | 3833 | . | 5 | 1 | 5
N/C(=N\OC(=O)COc1ccc(Cl)cc1Cl)c1ccncc1 | 2.3 | -124 | 4464 | . | -9 | -2 | 5
CC[N+](C)(CC)CCCC(=NO)C(O)(c1ccccc1)c1ccccc1 | 2.3 | . | . | . | 4 | -2 | -1
COC(=O)C1=C(c2cccc(C#N)c2)CC2CCC1N2C(=O)NCC1CC1 (stereo not given) | 5.7 | . | . | . | -1 | 1 | 1
COc1ccc(CN2C(=O)NC3(CCCCC3)C2=O)cc1F | 3.7 | -4 | 22242* | -3 | 0 | -4 | -2
C=CCOC(=O)C1=C[C@@H](c2ccc(C(F)(F)F)cc2)C[C@@H](OCCCCO)O1 | . | -23 | 2821 | -11 | . | . | .
CCOC(=O)Cn1c(=O)oc2cc(S(=O)(=O)N3CCCC(C(=O)OCC)C3)ccc21 (stereo not given) | 2.9 | -21 | 5639 | -4 | 1 | . | .
COC(=O)c1ccc(-c2noc(CN(C)CC3CCCCO3)n2)cc1 (stereo not given) | 3.3 | -82 | 3767 | 10 | 1 | 4 | 5
Cc1cc(C)nc(Sc2ncnc(N)c2[N+](=O)[O-])n1 | 4.1 | 56* | 3465 | 4 | 2 | 0 | 27
CCOC(=O)c1c(NC(=O)CSc2nnc(CNc3ccc(F)cc3)o2)sc(C)c1C | 9.3 | -10 | 3447 | -17 | -4 | 8 | 4
CCCCC1C2C(=O)N(c3ccc(C)cc3)C(=O)C2ON1c1ccccc1 (stereo not given) | -2.2 | . | 6340 | -11 | 0 | -1 | 8
O=C(CN1CCN(c2ncccn2)CC1)Nc1ccccc1C(F)(F)F | 5.2 | -17 | 2586 | 3 | 4 | 10 | 11
CCCCn1c(O)c(C(C)=Nc2ccc(OCC)cc2)c(=O)[nH]c1=O | 4.9 | -2 | 3391 | 9 | -7 | 1 | 14
Cc1cc(C)c(S(=O)(=O)NCCc2ccccc2)c(C)c1 | 2.9 | -6 | 2167 | -5 | -3 | 16 | 12
O=C(Cc1ccccc1)N1CCNCC1 | 3.8 | -16 | 4664 | 4 | 1 | 1 | 2
O=C1NC(=S)N/C1=C/c1cc([N+](=O)[O-])ccc1O | 6.8 | 0 | 4080 | -10 | -3 | 4 | 7
COc1ccc(C2=CC(c3ccc(OC)c(OC)c3)c3c(c4ccccc4oc3=O)O2)cc1OC (stereo not given) | 6.9 | -22 | 3825 | 35 | -5 | 12 | 9
